High-throughput results: PubChem, National Center for Advancing Translational Sciences (NCATS)
gsp antagonist: antagonizes gsp, the McCune-Albright syndrome mutation | Potency, µM (top dose mostly 76.9 µM), for inactives: at the highest dose activity change, negative = inhibition, usual class: inhibitors | 340,000 compounds, 0.4% hits | gsp-mutant cells, cAMP HTRF, 30 min; control for the full effect not named in the record | AID 624288; active = falling curve of any shape with a large fitted effect; inconclusive = falling curve, mostly with a smaller effect; inactive = flat or rising curve; cell line not stated here;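 note: intracellular cAMP measured with PDE inhibitor Ro 20-1724 present during compound exposure; potency is the fitted concentration of half-maximal effect; % is set by controls: 0 for no effect and ±100 for the full control effect; nearly all actives have a fitted effect of over 65% in size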
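Cells in G418 medium, seeded 16-24 h, 37C; buffer exchange to DPBS + 1 mM CaCl2, 0.5 mM MgCl2, 0.05% BSA; cpds in DMSO + […] (300 uM stock), 30 min 37C; HTRF cAMP detection.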
TRPV1 PAM: enhances activation of the human vanilloid receptor TRPV1; Q8NER1; AID 540277; potentiation, % at 8.33 µM; 320,000 compounds, 0.02% hits; TRPV1-expressing cells, Fluo-8 calcium influx, capsaicin EC20 potentiation; host cell line not named in the record; control for the full effect not named in the record; active means potentiation above 80%; inconclusive means 30% to 80%; inactive means below 30%; note: 0% is about no effect
Target sequence (Q8NER1 whole entry, looked up): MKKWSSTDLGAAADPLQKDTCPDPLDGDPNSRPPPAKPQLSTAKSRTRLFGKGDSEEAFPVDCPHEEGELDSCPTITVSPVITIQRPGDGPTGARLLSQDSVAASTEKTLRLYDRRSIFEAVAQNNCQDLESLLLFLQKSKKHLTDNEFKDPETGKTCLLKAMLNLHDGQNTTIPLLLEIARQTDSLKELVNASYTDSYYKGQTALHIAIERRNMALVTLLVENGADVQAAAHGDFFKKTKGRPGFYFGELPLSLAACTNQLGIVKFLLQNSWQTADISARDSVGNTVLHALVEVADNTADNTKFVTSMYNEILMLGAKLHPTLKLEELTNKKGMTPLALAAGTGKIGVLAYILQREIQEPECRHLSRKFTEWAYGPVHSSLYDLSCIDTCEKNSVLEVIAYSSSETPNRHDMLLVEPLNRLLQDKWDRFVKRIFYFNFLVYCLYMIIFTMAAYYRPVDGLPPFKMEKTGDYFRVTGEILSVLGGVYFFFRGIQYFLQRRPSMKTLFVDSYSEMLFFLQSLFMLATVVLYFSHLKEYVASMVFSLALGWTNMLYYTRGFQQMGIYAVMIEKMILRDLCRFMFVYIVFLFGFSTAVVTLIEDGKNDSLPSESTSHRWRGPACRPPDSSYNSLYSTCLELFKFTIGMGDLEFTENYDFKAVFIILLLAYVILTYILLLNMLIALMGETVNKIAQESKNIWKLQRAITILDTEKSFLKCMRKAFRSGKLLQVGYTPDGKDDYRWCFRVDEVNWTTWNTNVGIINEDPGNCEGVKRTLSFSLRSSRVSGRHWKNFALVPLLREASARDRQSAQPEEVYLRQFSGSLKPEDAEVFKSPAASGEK
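TRPV1-expressing cells were cultured overnight at 35.5C and loaded with Fluo-8 calcium dye for 40 to 90 min at room temperature. After a 10 s baseline, compound was added and calcium influx was read kinetically for 3 min (ex 480/em 520 nm).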
CtBP-E1A inh: CtBP/E1A binding inhibition; AlphaScreen GST-E1A/His-CtBP binding, 1536-well; hits give low values; control for the full effect not named in the record; activity change, % (test concentration not listed); 340,000 compounds, 0.49% hits; AID 651724; in the data active means activity change below about -65%; inconclusive means about -30% to -65%; inactive means above about -30%; note: % is set by controls: 0 for no effect and ±100 for the full control effect
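GST-E1A and His-tagged CtBP (125 nM each as 5X stock) were preincubated with pin-transferred compound for 2 h at 37 °C in the dark, then glutathione donor and nickel acceptor beads were added for 1 h before AlphaScreen reading.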
ClpP mod: qHTS Assay for Activators of ClpP. 340,000 compounds, 1.9% hits. Potency, µM (doses to about 57.5 µM), for the others: at the top dose activity change, negative = active. purified B. subtilis ClpP, FRET peptide cleavage, 20 min. AID 651965, 2013. ATP-dependent Clp protease proteolytic subunit (Bacillus subtilis (strain 168)), P80244; active = well fitted falling curve with a large enough effect; inconclusive = small, poorly fitted or top-dose-only effect; inactive = no such curve, though single readings can be large or run the other way; note: potency is the fitted concentration of half-maximal effect; the source files actives as falling curves though it sought activators and does not explain the sign; nearly all actives have a fitted effect of over 65% in size; many hits overshoot -100%
Target sequence (P80244 whole entry, looked up): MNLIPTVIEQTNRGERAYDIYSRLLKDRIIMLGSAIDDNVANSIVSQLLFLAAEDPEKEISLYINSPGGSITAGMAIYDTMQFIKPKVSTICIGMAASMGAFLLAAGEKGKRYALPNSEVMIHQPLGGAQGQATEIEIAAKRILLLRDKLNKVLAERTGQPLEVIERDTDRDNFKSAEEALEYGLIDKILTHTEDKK
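FRET quenching reversal measured ClpP activation: 10 microg/mL B. subtilis ClpP at pH 8 with the FRET-FV decapeptide, read at 430 nm after 320 nm excitation. The 20-min minus 0-min signal was scaled between DMSO/no-enzyme wells and ADEP (5.8 microM final).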
gsp agonist: gsp mutant agonism; gsp mutant cells, cAMP HTRF, 30 min; control for the full effect not named in the record; 340,000 compounds, 0.13% hits; AID 624287; Potency, µM (highest dose often 76.9 µM), for inactives: top-dose activation (cAMP increase), actives largely listed as activators; active = well fitted activation curve with a large enough effect; inconclusive = small, poorly fitted or top-dose-only effect, or another doubt; inactive = no such curve, though single readings can be large or run the other way; cell line not stated here;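 note: phosphodiesterase inhibitor Ro 20-1724 added with compounds to block cAMP breakdown; potency is the fitted concentration of half-maximal effect; nearly all actives have a fitted effect of over 60% in size; about a fifth of the inactives were tested at one dose only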
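Cells in DMEM/10% FBS with G418 were pretreated with compounds in DMSO plus […] (300 uM stock) for 30 min at 37C. cAMP was measured by HTRF (cAMP-d2 plus anti-cAMP antibody-K) after 30 min at room temperature.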
Menin MLL FP FL: menin-MLL binding inhibition, fluorescein peptide; Fluorescence polarization, fluorescein-MLL peptide displacement from menin; FP activity change, % at 61.4 µM; 290,000 tested, under 10 active; inconclusive = falling polarisation curve, or a change in total fluorescence; inactive = total fluorescence flat and polarisation flat or rising; no compound was filed as active; the % refers to the polarisation; negative = inhibition;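 note: % of control where 0% means no effect; inhibitors lower the polarisation; unlabelled MLL peptide was the positive control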
Sfp inh: inhibitors of Bacillus subtilis Sfp phosphopantetheinyl transferase; Biochemical Sfp PPTase activity, qHTS; 310,000 compounds, 3.5% hits; AID 1490; Q9F4F7; Potency, µM, for inactives: max response, negative = inhibition, usual class: inhibitors; active = well fitted inhibition curve with a large enough effect; inconclusive = small, poorly fitted or top-dose-only effect, or another doubt; inactive = no such curve, though single readings can be large or run the other way;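 note: the enzyme is Sfp with the accession as filed and its product quenches rhodamine fluorescence; potency is the fitted concentration of half-maximal effect; 0% = enzyme reaction without inhibitor and -100% = no enzyme wells; top concentration of the series not given in the record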
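Sfp 15 nM + cpd, 15 min RT; start w/ rhodamine-CoA 5 uM, BHQ-2-YbbR 12.5 uM (final); 50 mM Hepes pH 7.6, 10 mM MgCl2, 0.01% NP-40, 0.01% BSA; read 525/598 nm at 0 and 30 min.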
Numbers without * were called inactive; ? = inconclusive; nt = no result given; & = joins results of further samples; [ ] = another dose, or the depositor's remark. Outcome played no part in choosing rows. About 5.3% of those tested had a hit in this group.

item	SMILES	gsp agonist	gsp antagonist	ClpP mod	TRPV1 PAM	Sfp inh	Menin MLL FP FL	CtBP-E1A inh
1	CC1CCc2c(sc3ncn(Cc4ccc(C(=O)O)cc4)c(=O)c23)C1 (stereo not given)	3%	-15%	nt	3	9%	-0.3	1
2	COc1ccc(C(=O)CCC(=O)NCCc2ccccc2F)cc1	17%[15.4 µM]	3%	0.4%	-10	11%	7.1	-2
3	COc1ccc(C(=O)NCC(=O)OCC(=O)Nc2ncc(Cl)cc2Cl)cc1[N+](=O)[O-]	5%	-15%	1.8%	-8	nt	nt	nt
4	C=CCC1(O)CC(c2ccco2)NC(c2ccco2)C1CCC (stereo not given)	?	3%	-2.1%	3	-10%	1.8	7
5	COc1cc(NCCCn2ccc(NC(=O)OCc3ccccc3)nc2=O)cc(OC)c1OC	nt	-10%	0.4%	nt	nt	nt	-6
6	O=C(NCc1cccnc1)c1cc(Sc2ccc(F)cc2F)nc2ccccc12	?	?	-2.5%	-7	12%	-2.1	-10
7	NC(=O)c1ccccc1OCC(=O)Nc1ccc2c(c1)OCCO2	-21%[15.4 µM]	5%	-1.0%	-2	nt	nt	-5
8	CC(C)(C)NC(=O)CCCSc1nc2ccccc2s1	4%[15.4 µM]	-19%	nt	-10	11%	2.2	5
9	Cn1c2c(c3ccccc31)CCN1CCC[C@]21c1ccccc1	9%	3%	-10%	-16	-9%	5.0	nt
10	COc1ccc(Cn2c(N)c(C#N)c3nc4ccccc4nc32)cc1	-34%[inhibitor]	6%	?	1	2%	2.8	9
11	CN(C)CCCNC(=O)c1ccc(/C=N/O)nc1	-5%	6%	nt	1	9%	1.5	?
12	Cc1ccc(N2CCN(c3ncccc3[N+](=O)[O-])CC2)c(C)c1	27%[15.4 µM]	-9%	-1.9%	-2	1%	-4.7	-24
13	O=C(O)c1ccc(S(=O)(=O)c2ccc3c(c2)C(=O)N(CC2CCCO2)C3=O)cc1 (stereo not given)	-2%	-14%	-0.5%	-3	-2%	-1.6	4
14	COCCNC(C)C(=O)C12CC3CC(CC(C3)C1)C2 (stereo not given)	?	2%	-2.9%	0	6%	2.1	-2
15	C=CCn1c(-c2ccc(S(=O)(=O)N3CCOCC3)cc2)csc1=Nc1ccccc1	-19%	-10%	-1.1%	1	-25%	2.7	?
16	Cc1ccc(C(=O)NCC(c2ccco2)N2CCc3ccccc32)cc1C (stereo not given)	4%	-23%	?	14	nt	nt	-1
17	S=C(NC1CCCCC1)N1CCc2ccccc2C1	4%	-12%	1.7%	-14	-16%	7.7	5
18	O=C(N/N=C/c1cc(Br)c(Br)o1)C(O)c1ccccc1 (stereo not given)	1%[15.4 µM]	7%	nt	2	?	20	-18
19	CCc1ccccc1NC1Nc2cc(C)nn2S1 (stereo not given)	-6%[15.4 µM]	-2%	nt	4	17%	-2.3	0
20	O=C(CN1CCN(C(=O)c2cncn2-c2ccccc2)CC1)Nc1ccccc1Cl	15%	-4%	2.2%	7	nt	nt	6
21	CCN(CC(=O)Nc1ccc2c(c1)OCCO2)S(=O)(=O)c1ccccc1	4%[15.4 µM]	12%	-0.7%	3	3%	-2.1	1
22	CC(C)(C)NS(=O)(=O)c1ccc2nc(NC(=O)c3ccc(N4C(=O)CCC4=O)cc3)sc2c1	28%	24%	-15%	-10	22%	-1.2	nt
23	CN(C)C(=O)N(CCCN1CCOCC1)Cc1cccc2ccccc12	-15%[15.4 µM]	-10%	0.7%	-13	7%	-4.2	0
24	COc1ccccc1NS(=O)(=O)c1cc(C(=O)NCc2ccncc2)ccc1C	-1%	-1%	-3.2%	6	nt	nt	-19
25	CC1=Nc2ccccc2/C1=C/c1sc(=S)n(-c2cccc(C(=O)O)c2)c1O	-13%[15.4 µM]	-8%	nt	-4	5%	?	-67*
26	Cc1scc(C(=O)N/N=C/c2ccco2)c1C	18%	-2%	0.9%	1	8%	-2.3	8
27	Cc1cc(C(=O)Nc2c(C)nn(Cc3ccc(Cl)cc3)c2C)no1	-1%	12%	0.6%	7	11%	8.2	nt
28	CCOCC(=O)Nc1ccccc1C(=O)O	4%[15.4 µM]	nt	nt	5	4%	0.4	-15
29	CCOC(=O)c1c(C)oc2c1c(C(c1ccccc1)N1CCOCC1)c(O)c1ccccc12 (stereo not given)	1%	-6%	-1.8%	18	6%	4.7	-3
30	CC(=O)Nc1ccc(S(=O)(=O)N(C)CC(=O)NCCC2=CCCCC2)cc1	-1%	7%	1.5%	-22	-8%	nt	3

4 compounds from above, reduced to ClpP mod:
nr | Molecule | ClpP mod
20 | O=C(CN1CCN(C(=O)c2cncn2-c2ccccc2)CC1)Nc1ccccc1Cl | 2.2%
5 | COc1cc(NCCCn2ccc(NC(=O)OCc3ccccc3)nc2=O)cc(OC)c1OC | 0.4%
16 | Cc1ccc(C(=O)NCC(c2ccco2)N2CCc3ccccc32)cc1C (stereo not given) | ?
30 | CC(=O)Nc1ccc(S(=O)(=O)N(C)CC(=O)NCCC2=CCCCC2)cc1 | 1.5%

The results go on:
item	SMILES	gsp agonist	gsp antagonist	ClpP mod	TRPV1 PAM	Sfp inh	Menin MLL FP FL	CtBP-E1A inh
31	CCOc1ccc(C(=O)CCC(=O)NN2CCCCC2)cc1	?	nt	0.6%	nt	nt	nt	3
32	CCOc1ccc(Oc2ccccc2NC(=O)CCc2nc3ccccc3c(=O)[nH]2)cc1	?	nt	0.7%	nt	nt	nt	-5
33	CCOC(=O)c1c(NC(=O)COC(=O)CCOc2cc(C)ccc2C)sc(C(=O)N(C)C)c1C	6%	-35%	-1.7%	nt	nt	nt	-2
34	CC(C)C(OC(=O)c1cccs1)C(=O)NCc1ccc2c(c1)OCO2 (stereo not given)	8%	3%	-3.5%	6	12%	-2.5	-1
35	CCOc1ccc(NC2=NC(C(=O)NCc3ccccc3)CC(=O)N2)cc1 (stereo not given)	-2%	-13%	0.9%	-7	3%	-0.6	2
36	Cc1ccc2c(c1)cc1c(=O)[nH]ncn12	2%	-8%	?	0	30%[activator]	-0.1	-2
37	Cc1ccsc1C(=O)N/N=C/c1ccc([N+](=O)[O-])cc1	7%[15.4 µM]	4%	-1.4%	-11	-16%	6.8	-4
38	Cc1ccc(C)c(S(=O)(=O)N2CCCOC2CNC(=O)C(=O)NCCCn2ccnc2)c1 (stereo not given)	13%	1%	-3.1%	6	2%	0.7	3
39	Cc1cccc(NS(=O)(=O)c2c(C)n[nH]c2C)c1	-20%	-5%	-1.2%	2	16%	3.6	-2
40	CCN(c1ccccc1)S(=O)(=O)c1ccc2[nH]c(=O)[nH]c2c1	17%[15.4 µM]	0%	nt	-4	2%	7.8	23
41	COc1ccc(OC)c(C2=NOC(C(=O)Nc3ccccc3SC)C2)c1 (stereo not given)	7%	-12%	-23%	11	-13%	-1.0	6
42	COc1ccc(CNc2nc(NCc3ccc(OC)cc3)n(C(=O)c3ccccc3[N+](=O)[O-])n2)cc1	-34%[inhibitor]	-3%	-4.4%	9	7%	2.6	-24
43	COc1cc(-c2noc(C)c2C(=O)N[C@@H](CO)Cc2ccccc2)cc(OC)c1OC	nt	2%	1.0%	nt	nt	nt	4
44	O=C(C1CCCCC1)N1C[C@@H](n2cc(-c3ccc(F)cc3)nn2)[C@H](O)C[C@@H]1c1ccccc1	0%	nt	-1.1%	nt	nt	nt	2
45	Cc1ccc(NCc2nnc(SCC(=O)N3CCc4ccccc43)n2C)cc1	-6%	0%	0.1%	22	7%	2.0	-1
46	O=C(CN1C(=O)c2cccc([N+](=O)[O-])c2C1=O)N1CCc2ccccc2C1	-59%[inhibitor]	nt	0.5%	nt	nt	nt	-1
47	Cc1ccccc1OCc1n[nH]c(=S)n1-c1cccc(Cl)c1	-12%	-8%	0.7%	2	7%	-11	nt
48	CC1(C)C[C@H]2C3=CCC4[C@@]5(C)CC[C@H](O)[C@](C)(CO)C5CC[C@@]4(C)[C@]3(C)CC[C@@]2(C)[C@H](O)[C@@H]1O (stereo not given in full)	nt	4%	-0.7%	nt	nt	nt	-4
49	O=C(CCl)c1ccc2[nH]c(=O)oc2c1	7%	2%	-5.5%	5	-15%	2.3	-15
50	Cc1ccc(OCC(=O)Nc2ccc3oc(=O)ccc3c2)c(C)c1	0%[15.4 µM]	-14%	nt	-12	9%	nt	7
51	Cc1cc(NC(=O)C(C)SCC(=O)Nc2ccccc2N2CCCCC2)no1 (stereo not given)	8%	-7%	-1.9%	-11	nt	nt	-1
52	Cc1ccccc1-c1noc(CCC(=O)NC2CCCCC2)n1	12%	0%	nt	-4	8%	5.5	4
53	CCN1CCN(C(=O)/C(C#N)=C/c2ccc(OC(F)F)cc2)CC1	24%	3%	-1.0%	5	9%	-2.5	nt
54	COC(=O)CCCC1=CC2=C(c3ccccc3)C(=O)C(C)(OC(=O)C3CCCC3)C(=O)C2=CN1C(CO)CO (stereo not given)	nt	-5%	-4.7%	22	-10%&11%	2.1[11.7 µM]	0
55	CCOC(=O)c1sc(C)c2c1NC(c1ccc(Cl)cc1)NC2=O (stereo not given)	5%	3%	-20%	-2	4%	-2.6	4
